Source: PubChem BioAssay
Mtb betalactam = beta-lactam sensitization of Mtb H37Rv | M. tuberculosis H37Rv growth with meropenem, percent inhibition; hits of this screen are not shown here | inhibition, % at 25 µM | hit rate 0.27% among 330,000;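 active = about 74% or more and at least 40 points above the plate without the antibiotic, then above 30% in a dose series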;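 note: growth measured after seven days incubation then overnight dye step; 0% = bacteria only wells and 100% = bacteria with antibiotic; twin plates without the antibiotic show which effects depend on it; some results filed as inactive read as strong as hits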
* = called active by the depositor.

No. | Compound | Mtb betalactam
1 | [O-]/[N+](=C\c1ccccc1)c1ccccc1 | -1
2 | CCc1ccc(CCC(=O)Nc2ccc(Br)cc2)o1 | 55
3 | O=C(COC(=O)c1n[nH]c2ccccc12)Nc1ccccc1F | -9
4 | CC(NC(=O)CN1C(=O)NC2(CCCC2)C1=O)c1ccc2ccccc2c1 (stereo not drawn) | -4
5 | COc1ccc(-c2noc(C3CCCN(C(=O)c4c(F)cccc4F)C3)n2)cc1OC (stereo not drawn) | -4
6 | COc1ccc(S(=O)(=O)N2CCCCCC2)cc1C(=O)N1CCN(c2ccccc2C)CC1 | 11
7 | CCOc1ccc(CN(C)C(=O)c2ccc(=O)[nH]c2)cc1 | -21
8 | O=C(COC(=O)c1ccc[nH]c1=O)NCCCc1ccccc1 | 3
9 | O=C(COC(=O)c1ccc2c(c1)OCO2)NC1CCCCC1 | -5
10 | O=C(c1cc(Br)ccc1OC(F)F)N1CCN2CCCC2C1 (stereo not drawn) | 2
11 | c1ccc(-c2sc3ccccc3c2-c2ccc(OCCN3CCCC3)cc2)cc1 | 100
12 | O=Cc1c(Cl)cccc1Cl | -7
13 | Cc1cccc(C(=O)OCC(=O)NC(=O)NCc2ccccc2)c1 | 7
14 | COc1ccc(OCCCC(=O)Nc2ccc(S(=O)(=O)N3CCOCC3)cc2)cc1 | -6
15 | Cc1csc(NC(=O)C(C)Oc2ccc(Cl)cc2C)n1 (stereo not drawn) | 41
16 | CCOC(=O)C1CCN(C(=O)c2ccc(S(=O)(=O)Nc3ccccc3OC)cc2)CC1 | -4
17 | CN(C(=O)COC(=O)c1ccccc1SCC(=O)N1CCCC1)C1(C#N)CCCCC1 | 4
18 | Cc1ccc(CNC(=O)c2ccc(N3CCC4(CC3)CC(c3cccc(Br)c3)=NO4)c(NC(=O)c3c(Cl)cccc3Cl)c2)cc1 | -9
19 | Cc1ccc(Nc2nnc(SCC(=O)NC3CC3)s2)cc1 | 11
20 | C=CCC[C@H](Cc1ccc(F)cc1)C(=O)OC[C@@H](Cc1c[nH]c2ccccc12)NC(=O)[C@H](CC=C)CC(=O)NCCO | -7
21 | Cc1ccc(S(=O)(=O)NCCC(=O)NNC(=O)COc2ccccc2Cl)cc1C | 11
22 | S=C=Nc1cccc(C2(N3CCCCC3)CCCCC2)c1 | -4
23 | CCOC(=O)[C@@H]1[C@H]2COc3cc(OC)ccc3[C@H]2N2C(=O)N(c3cccc(F)c3)C(=O)[C@]12C | -8
24 | COc1ccc(CC(=O)Nc2ccc(F)c(F)c2F)cc1S(=O)(=O)N1CCOCC1 | -1
25 | COc1ccc(C(C)=O)cc1COC(=O)CNC(=O)C1CCCCC1 | 0
26 | Cn1cccc1C(=O)NC(=O)COC(=O)CCNS(=O)(=O)c1cccc(C(F)(F)F)c1 | 5
27 | Cc1ccc(S(=O)(=O)N2CCC[C@H]2C(=O)NCc2ccccc2Cl)cc1 | -2
28 | Cc1c(NC(=O)COC(=O)c2ccc(Cl)nc2)c(=O)n(-c2ccccc2)n1C | -6
29 | NS(=O)(=O)c1ccc(CCNC(=O)COC(=O)CCc2c[nH]c3ccccc23)cc1 | 7
30 | CCN(CC)CCNc1oc(-c2ccccc2)nc1S(=O)(=O)c1ccccc1 | 1

An excerpt of these results, field by field:
#30 CCN(CC)CCNc1oc(-c2ccccc2)nc1S(=O)(=O)c1ccccc1
  Mtb betalactam = 1
#23 CCOC(=O)[C@@H]1[C@H]2COc3cc(OC)ccc3[C@H]2N2C(=O)N(c3cccc(F)c3)C(=O)[C@]12C
  Mtb betalactam = -8
#9 O=C(COC(=O)c1ccc2c(c1)OCO2)NC1CCCCC1
  Mtb betalactam = -5
#21 Cc1ccc(S(=O)(=O)NCCC(=O)NNC(=O)COc2ccccc2Cl)cc1C
  Mtb betalactam = 11

(next part)
No. | Compound | Mtb betalactam
31 | CC(C)[C@H](NC(=O)c1ccc(Br)cc1)C(=O)NC1CCCCC1 | 1
32 | Cc1ccc(C2CN(CCC(N)=O)C(=O)CO2)cc1 (stereo not drawn) | 0
33 | O=C(c1ccco1)N1CCN(Cc2ccc(F)cc2Cl)CC1 | 3
34 | Cc1ccc(NC(=O)COC(=O)c2ccc(-n3cnnn3)cc2)c(Br)c1 | 0
35 | Cn1cccc1C(=O)OCC(=O)NCc1ccc2c(c1)OCO2 | -6
36 | CC(C)(C)OC(=O)C[C@H]1C/C=C\C[C@@H](CC(=O)NCCO)C(=O)N[C@H](Cc2ccccc2)COC1=O | -5
37 | COc1ccccc1CNc1nc(C)c(C(C)=O)s1 | -9
38 | O=C1CC/C=C\C[C@@H](CC(=O)N(CCO)Cc2ccccc2)C(=O)N[C@H](Cc2ccccc2)CO1 | 2
39 | O=C(Cc1c(Cl)cccc1Cl)N1CCN(S(=O)(=O)c2cccs2)CC1 | -1
40 | C[C@@H]1COC(=O)CCC/C=C\C[C@@H](CC(=O)N(CCO)Cc2ccccc2)C(=O)N1 | -4
41 | COc1cc2c(C#CCO)c(-c3ccc(C#N)cc3)oc(=O)c2cc1OC | -7
42 | CC(=O)c1cc2c(cc1NC(=O)C1CN(C(C)=O)c3ccccc3O1)OCO2 (stereo not drawn) | -4
43 | CC(Sc1nnnn1C)C(=O)NC1CCCC1 (stereo not drawn) | -2
44 | O=C(CCNS(=O)(=O)c1ccc(F)c(Cl)c1)NCc1ccccc1F | -15
45 | Cc1c(NC(=O)c2cccc(NC(=O)Cc3c(F)cccc3Cl)c2)c(=O)n(-c2ccccc2)n1C | -1
46 | O=S(=O)(Nc1ccccn1)c1ccc(Br)cc1 | -10
47 | CCN(C[C@H]1N[C@@](CC)(C(=O)OC)[C@H]2C(=O)N(C)C(=O)[C@@H]12)S(=O)(=O)c1ccc(OC)cc1 | 3
48 | CC1CN(C(=O)COC(=O)/C=C/c2cccc([N+](=O)[O-])c2)CC(C)O1 (stereo not drawn) | -1
49 | CC(Oc1ccc(C(C)(C)C)cc1)C(=O)NCC(c1ccco1)N1CCCC1 (stereo not drawn) | 2
50 | Cc1ccc(S(=O)(=O)NC(CC(C)C)C(=O)NCCCn2nc(C)cc2C)cc1 (stereo not drawn) | -7
51 | O=C(CCCOc1ccccc1)Nc1cccc(S(=O)(=O)N2CCCCCC2)c1 | -2
52 | O=C(NCc1ccccc1)c1ncn(Cc2ccccc2)c1C(=O)NCc1ccccc1 | 2
53 | CCN(c1ccccc1)S(=O)(=O)c1cc(C(=O)NCc2ccco2)ccc1C | 7
54 | O=C(COC(=O)Cc1c(F)cccc1Cl)NC(=O)Nc1ccccc1F | -7
55 | CCCc1nc2nc(C)c(NS(=O)(=O)c3ccc([N+](=O)[O-])cc3)c(=O)n2[nH]1 | 6
56 | COc1ccccc1CN(C)C(=O)c1cccc(S(=O)(=O)N2CCc3ccccc3C2)c1 | -3
57 | CC1(C)O[C@@H]2[C@H](O1)[C@@H](COS(=O)(=O)O)O[C@H]2n1c(=S)[nH]c2c(=O)[nH]c(N)nc21 | 2
58 | Cc1cc(C)c(C#N)c(SCC(=O)Nc2nonc2N)n1 | -3
59 | Cn1c(CC(=O)NNC(=O)c2ccccc2F)nc2ccccc21 | 67
60 | CC1CCCCC1NC(=O)COC(=O)c1ccc2c(c1)NC(=O)CS2 (stereo not drawn) | -3

Random excerpt: 2 compounds from above.
No. | Compound | Mtb betalactam
16 | CCOC(=O)C1CCN(C(=O)c2ccc(S(=O)(=O)Nc3ccccc3OC)cc2)CC1 | -4
21 | Cc1ccc(S(=O)(=O)NCCC(=O)NNC(=O)COc2ccccc2Cl)cc1C | 11

Additional structures.
No. | Compound | Mtb betalactam
61 | O=C(C1CCC1)N1CCN(S(=O)(=O)c2ccc([N+](=O)[O-])cc2)CC1 | 9
62 | Cc1cccc(NC(=O)COC(=O)c2cccc(S(=O)(=O)N3CCCCCC3)c2)c1 | -2
63 | CCC(C)N1CCC2(CC1)N=c1c(c3c4c5c(C)c(O)c3c(O)c1=NC(=O)C(C)=CC=C[C@H](C)[C@H](O)[C@@H](C)[C@@H](O)[C@@H](C)[C@H](OC(C)=O)[C@H](C)[C@@H](OC)C=CO[C@@](C)(O5)C4=O)N2 (stereo partly drawn) | 100
64 | O=C(NCc1ccc(F)cc1)c1cccnc1 | -3
65 | COc1ccc(C(=O)NCC(=O)OCC(=O)NC2CCCCCC2)cc1OC | 6
66 | COc1ccc(NC(=O)CCCOc2ccc(Cl)c(C)c2)cc1S(=O)(=O)N1CCOCC1 | 5
67 | CN(C)C1=NC[C@H](Cc2ccccc2)N1CCc1ccc(F)cc1 | -2
68 | CCCNCC(=O)Nc1cccc(S(=O)(=O)NC2=NCCCCC2)c1 | 2
69 | CCCCN1C(Nc2ccccc2)=NC[C@@H]1CC(C)C | -13
70 | Cc1ccc(NC(=O)Cc2ccccc2F)cc1S(=O)(=O)N1CCCCCC1 | -3
71 | CC12CCC(=O)N1C(C(=O)NNC(=O)c1ccccc1Cl)CS2 (stereo not drawn) | -5
72 | CN(Cc1ccc(C(C)(C)C)cc1)C(=O)Cc1ccc(S(=O)(=O)N2CCOCC2)s1 | -12
73 | O=C(O)CCn1cc(-c2ccc(Cl)cc2)nc1-c1ccc(Cl)nc1 | 5
74 | CC(=O)Nc1ccc(C(=O)CN2C(=O)NC3(CCCc4ccccc43)C2=O)c(F)c1 (stereo not drawn) | -11
75 | CCCCn1c(N)c(N(CCC(C)C)C(=O)c2cc(Cl)nc3ccccc23)c(=O)[nH]c1=O | -3
76 | CN(C(=O)CSc1nc2ccccc2n1C)C1CCS(=O)(=O)C1 (stereo not drawn) | -8
77 | CSc1ccccc1NC(=O)CN(C)C(=O)c1ccc(-n2cccn2)cc1 | -4
78 | CCCCn1c(N)c(N(CC(C)C)C(=O)C2=NN(c3ccccc3)C(=O)CC2)c(=O)[nH]c1=O | -4
79 | O=C1CN(C(=O)COC(=O)[C@@H]2CCCN2S(=O)(=O)c2ccc(Cl)cc2)c2ccccc2N1 | -2
80 | COc1cccc(C2=CC(=O)C[C@H](c3ccc4c(c3)OCO4)C2)c1OC | 48
81 | COc1ccc2c(c1)[nH]c1c(C)nccc12 | 10
82 | CCc1ccc(C(=O)OCC(=O)N2CCCCCC2)cc1 | 1
83 | COc1ccc(C(CNC(=O)C(C)Oc2ccc(Br)cc2)N2CCCCC2)cc1 (stereo not drawn) | -1
84 | COc1ccccc1C(CNC(=O)CNC(=O)c1ccc(Cl)c(Cl)c1)N1CCCC1 (stereo not drawn) | -5
85 | Cc1cnc(C(=O)OCC(=O)Nc2ccc(Br)c(C)c2)cn1 | -1
86 | COc1ccccc1NC(=O)C(C)OC(=O)CCNS(=O)(=O)c1cccc(C(F)(F)F)c1 (stereo not drawn) | 3
87 | C[C@H](CO)N1C[C@H](C)[C@@H](CN(C)Cc2ccc(-c3ccccc3)cc2)Oc2c(NS(=O)(=O)c3ccc(F)cc3)cccc2C1=O | 8
88 | COc1ccc(NC(=O)CCN2C(=O)NC3(CCCC3)C2=O)cc1Cl | 76
89 | COc1ccccc1NC(=O)Nc1ccc(S(=O)(=O)Nc2onc(C)c2C)cc1 | 6
90 | Cc1cc(C(=O)Nc2cccc3c2O[C@@H](CN(C)S(C)(=O)=O)[C@H](C)CN([C@@H](C)CO)C3=O)n(C)n1 | -2
91 | CCOc1ccccc1N1CCN(C(=O)c2cccs2)CC1 | -6
92 | CC(=O)Nc1ccc(OCC(O)CNC(C)C)cc1 (stereo not drawn) | -6
93 | CCC1=NN2C(=N)/C(=C/c3ccc(OS(=O)(=O)c4ccccc4)c(OC)c3)C(=O)N=C2S1 | 1
94 | CC(Sc1n[nH]c(-c2ccccc2F)n1)C(=O)Nc1ccc(S(N)(=O)=O)cc1 (stereo not drawn) | -4
95 | O=C(Nc1nnc(C2CC2)s1)c1cncc(Br)c1 | -6
96 | COc1cc(C(=O)Nc2cc(S(C)(=O)=O)ccc2Cl)ccc1OCC(=O)N1CCOCC1 | -1
97 | Cc1cc(Cn2nnc(-c3ccc(Br)cc3)n2)cc(C)c1O | 2
98 | CC(OC(=O)c1ccc2ncsc2c1)C(=O)Nc1cccc(Cl)c1 (stereo not drawn) | -2
99 | C[C@H]1O[C@H](O[C@H]2[C@H](O[C@@H]3CC[C@@]4(C)C(CC[C@]5(C)C4CC=C4[C@@H]6CC(C)(C)CC[C@]6(C(=O)O[C@@H]6O[C@H](CO)[C@@H](O)[C@H](O)[C@H]6O)CC[C@]45C)C3(C)C)O[C@H](C(=O)O)[C@@H](O)[C@@H]2O)[C@@H](O)[C@@H](O)[C@@H]1O (stereo partly drawn) | -6
100 | COc1ccc(NC(=O)c2nc[nH]c2C(=O)NCCCCCNC(=O)OC(C)(C)C)cc1 | 80
101 | Cc1ccc(NC(=O)COC(=O)CCC(=O)c2cccs2)c(Br)c1 | 2
102 | O=C(NS(=O)(=O)N1CCCC1)C1=C(N2CCCC2)COC1=O | 10
103 | NS(=O)(=O)c1cccc(NC(=O)COC(=O)c2ccccc2C(=O)c2ccccc2)c1 | 6
104 | CC1=C(C(=O)OCCC#N)C(c2cc3c(cc2Br)OCO3)NC(=O)N1 (stereo not drawn) | -1
105 | CN(C)S(=O)(=O)n1cnc([C@H]2c3c(ncn3Cc3ccccc3)C[C@H]3COC(=O)[C@@H]32)c1 | -9
106 | CCC1=NN2C(=N)/C(=C\c3ccc(OCCOc4ccccc4OC)cc3)C(=O)N=C2S1 | 1
107 | CN(C)S(=O)(=O)c1cccc(C(=O)Nc2ccccc2C(=O)NC2CC2)c1 | -1
108 | CC(=O)Nc1nc(-c2cccc3ccccc23)cs1 | -14
109 | CC(C)(C)c1ccc(OCC(O)CN2CCc3ccccc3C2)cc1 (stereo not drawn) | 10
110 | CC1(C)C[C@@H]1C(=O)N/C(=C\CCCCSC[C@H](N)C(=O)O)C(=O)O | 100
111 | O=[N+]([O-])c1ccc(S(=O)(=O)Nc2ccncc2)cc1 | -2
112 | CN(CC(=O)Nc1ccccc1C(=O)Nc1ccccc1)C1CCCCC1 | -1
113 | S=C(Nc1ccc(Cl)c(Cl)c1)N1CCN(c2ccccn2)CC1 | -2
114 | COc1ccc(NC(=O)CCCN2C(=O)CN(C)C2=O)c(OC)c1 | 19
115 | Cn1c(N)c(C(=O)COC(=O)/C=C/c2ccc(Cl)cc2)c(=O)n(C)c1=O | 0
116 | CC(Sc1cccc[n+]1[O-])C(=O)Nc1cc(Cl)c(Cl)cc1Cl (stereo not drawn) | 1

Not all compounds are listed; the hit share may differ from the screen's.
